Source: PubChem (Broad Institute)
Vaccinia stage: Vaccinia orthopox stage-specific inhibition; activity change (mCherry), % (concentration not given with the values); 0.01% of 89,000 active; AID 1053133; Vaccinia-infected cells, mCherry/Venus stage reporter fluorescence; hits give low values; some inactives read as strong as hits;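 active means mCherry past -33% and 40 or more points under the early reporter, replicates agreeing; inconclusive means past -33% without that gap or agreement; tested in A549 cells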;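 further: scaled between vehicle wells and reference inhibitor wells; 23 nL library stock went into each well; one replicate is shown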
Vaccinia stage Venus: further read-out of Vaccinia stage, marked with its call; activity change (Venus), %; measured here: Venus reporter, other viral stage;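 negative = less Venus signal; first of two replicates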
The depositor's hits bear a star; ? = inconclusive; · = no result given; & = joins results of further samples.

SMILES | Vaccinia stage Venus | Vaccinia stage
O=C(Nc1cc(F)ccc1F)N[C@@H]1C=C[C@H](CC(=O)N2CCc3ccccc3C2)O[C@H]1CO | -9 | -17
C[C@@H]1CN([C@@H](C)CO)C(=O)c2cccc(N(C)C)c2O[C@H]1CN(C)S(=O)(=O)c1cccs1 | 6 | 5
COc1ccc(S(=O)(=O)Nc2cccc3c2O[C@H](CN(C)S(=O)(=O)c2c(C)noc2C)[C@H](C)CN([C@@H](C)CO)C3=O)cc1 | 18 | 28
C[C@H](CO)N1C[C@H](C)[C@H](CN(C)Cc2ccc(C(F)(F)F)cc2)OCc2ccccc2-c2ccccc2C1=O | · | ?
CO[C@@H]1CN(C)C(=O)c2ccc(NC(C)=O)cc2OC[C@@H](C)N(CC2CC2)C[C@@H]1C | 4 | 7
CNC[C@@H]1Oc2ccc(NC(=O)C3CC3)cc2CC(=O)N([C@H](C)CO)C[C@H]1C | 6 | 7
C[C@@H]1CN([C@@H](C)CO)C(=O)Cc2cc(NC(=O)Nc3ccc(F)cc3)ccc2O[C@@H]1CN(C)Cc1ccccc1 | -22 | -33
COc1ccc(NC(=O)N(C)C[C@@H]2Oc3c(NC(=O)C4CCCCC4)cccc3C(=O)N([C@@H](C)CO)C[C@H]2C)cc1 | 6 | 16
C[C@@H]1CN([C@@H](C)CO)S(=O)(=O)c2ccc(C#CC3(O)CCCC3)cc2O[C@H]1CN(C)C(=O)Nc1cccc(F)c1 | -28 | -35
CC(=O)Nc1ccc2c(c1)C(=O)N(C)[C@@H]1CC[C@H](CC(=O)NCC3CC3)O[C@@H]1CO2 | 1 | 0
CO[C@@H]1CN(C)C(=O)c2ccc(NS(=O)(=O)c3ccc(Oc4ccccc4)cc3)cc2OC[C@H](C)NC[C@@H]1C | 3 | -10
C[C@@H]1CN([C@@H](C)CO)C(=O)c2cc(NC(=O)NC3CCCCC3)ccc2O[C@H]1CN(C)Cc1ccc(C(=O)O)cc1 | 6 | 8
C[C@@H]1CN([C@H](C)CO)C(=O)c2cc(C#Cc3cccnc3)cnc2O[C@@H]1CN(C)C | 0 | 2
COc1ccc(S(=O)(=O)N(C)C[C@@H]2OCc3cnnn3CCCC(=O)N([C@H](C)CO)C[C@H]2C)cc1 | -2 | -2
C[C@@H]1CN([C@H](C)CO)C(=O)c2cc(NC(=O)Nc3ccc(F)cc3)ccc2O[C@H]1CN(C)Cc1ccncc1 | 8 | 5
O=C(C1CCOCC1)N1C[C@H]2[C@@H](c3ccccc31)[C@H](CO)N2C(=O)c1ccccc1 | 11 | 17
O=C(NC[C@H]1[C@H](c2ccccc2)[C@@H](CO)N1CC1CC1)c1cccnc1 | 6 | 8
C[C@H]1CN([C@@H](C)CO)S(=O)(=O)c2ccc(-c3cccc(F)c3)cc2O[C@@H]1CN(C)S(C)(=O)=O | -25 | -21
COc1ccc(S(=O)(=O)Nc2ccc3c(c2)C(=O)N([C@@H](C)CO)C[C@@H](C)[C@H](CN(C)S(C)(=O)=O)OCCCC[C@@H](C)O3)cc1 | 1 | 10
CCCC#Cc1ccc([C@@H]2[C@H]3CN(C(=O)c4cccnc4)CC(=O)N3[C@H]2CO)cc1 | -4 | -1
C[C@H](CO)N1C[C@H](C)[C@H](CN(C)C(=O)Nc2ccc(C(F)(F)F)cc2)Oc2ccc(NS(C)(=O)=O)cc2CC1=O | 1 | 14
CC(C)CC#Cc1cnc2c(c1)C(=O)N([C@H](C)CO)C[C@H](C)[C@@H](CN(C)Cc1ccc(F)cc1)O2 | -22 | -27
CCN(C[C@H]1[C@H](c2ccccc2)[C@H](CO)N1C(C)=O)C(=O)c1ccccn1 | -3 | 10
C[C@@H]1CN([C@@H](C)CO)C(=O)c2cc(NS(=O)(=O)c3ccc(F)cc3)ccc2O[C@H]1CN(C)Cc1ccc2c(c1)OCO2 | 0 | 12
CC(=O)N1CC2(C1)[C@H](c1ccc(-c3cccc(F)c3)cc1)[C@H](CO)N2CC1CCCC1 | · | ?
COC(=O)C[C@@H]1CC[C@@H]2[C@H](COC[C@H](O)CN2C(=O)Nc2cccc(F)c2)O1 | 10 | 15
O=C(C[C@H]1CC[C@H]2[C@@H](COC[C@@H](O)CN2CCC(F)(F)F)O1)NCc1ccc2c(c1)OCO2 | 12 | 8
Cc1noc(C)c1S(=O)(=O)N(C)C[C@@H]1Oc2ccc(NS(=O)(=O)c3cn(C)cn3)cc2C(=O)N([C@@H](C)CO)C[C@@H]1C | 4 | -4
COCC(=O)Nc1ccc2c(c1)OC[C@H](C)N(C(=O)Cc1ccccn1)C[C@@H](C)[C@H](OC)CN(C)C2=O | 0 | 3
COc1ccc(S(=O)(=O)Nc2ccc3c(c2)C(=O)N([C@@H](C)CO)C[C@@H](C)[C@H](CN(C)C(=O)Nc2ccc4c(c2)OCO4)OCCCC[C@@H](C)O3)cc1 | 9 | 13
C/C=C/c1ccc([C@H]2[C@@H](CO)N[C@@H]2CNC(=O)c2ccccc2F)cc1 | -18 | -29
Cc1noc(C)c1NC(=O)Nc1cccc2c1O[C@H](CN(C)C(=O)NC1CCCCC1)[C@H](C)CN([C@H](C)CO)C2=O | 4 | 5
C[C@H]1CN([C@@H](C)CO)S(=O)(=O)c2ccc(-c3cncnc3)cc2O[C@H]1CN(C)Cc1ccc(Oc2ccccc2)cc1 | · | ?
C[C@H]1CN([C@@H](C)CO)C(=O)Cc2cc(NC(=O)Cc3ccccc3)ccc2O[C@@H]1CN(C)Cc1ccncc1 | 0 | 4
C[C@@H]1CCCCO[C@@H](CN(C)Cc2ccc(C(=O)O)cc2)[C@@H](C)CN([C@@H](C)CO)C(=O)c2cc(NC(=O)Cc3ccccc3)ccc2O1 | 13 | 18
O=C(C[C@@H]1CC[C@H]2[C@@H](COC[C@H](O)CN2C(=O)Nc2ccc(F)cc2)O1)NCC1CC1 | -1 | 18
C[C@@H]1CN([C@@H](C)CO)S(=O)(=O)c2ccc(C#CCN(C)C)cc2O[C@@H]1CN(C)S(=O)(=O)c1cccc(F)c1 | -14 | -18
C[C@H]1CN([C@@H](C)CO)C(=O)c2cc(NS(=O)(=O)c3ccc(Cl)cc3)ccc2O[C@H]1CN(C)C | 8 | 8
CCCNC(=O)[C@@H]1[C@@H](CO)[C@@H]2Cn3c(ccc(-c4ccccc4F)c3=O)[C@@H]2N1C | 6 | 11
Cc1cc(C(=O)Nc2cccc3c2O[C@@H](CN(C)Cc2ccc(C(F)(F)F)cc2)[C@H](C)CN([C@H](C)CO)C3=O)n(C)n1 | · | ?
O=C(C[C@H]1CC[C@H]2[C@@H](COC[C@H](O)CN2C(=O)c2ccccc2F)O1)N1CCCCC1 | 4 | 13
O=C(C[C@@H]1CC[C@H]2[C@@H](COC[C@H](O)CN2C(=O)Nc2ccc(Cl)c(Cl)c2)O1)NCc1ccc(F)cc1 | · | ?
COc1ccccc1S(=O)(=O)N(C)C[C@H]1Oc2cc(Br)ccc2S(=O)(=O)N([C@@H](C)CO)C[C@H]1C | · | ?
O=C([C@@H]1[C@@H](CO)[C@@H]2Cn3c(cccc3=O)[C@H]1N2C(=O)c1ccccc1)N1CCCCC1 | -1 | 4
Cc1noc(C)c1NC(=O)N(C)C[C@H]1Oc2ccc(NC(=O)C3CC3)cc2CC(=O)N([C@@H](C)CO)C[C@@H]1C | 1 | 1
Cc1noc(C)c1NC(=O)Nc1ccc2c(c1)C(=O)N([C@@H](C)CO)C[C@H](C)[C@H](CN(C)S(=O)(=O)c1ccc(F)cc1)OCCCC[C@@H](C)O2 | 7 | 27
C[C@@H]1CN([C@H](C)CO)C(=O)c2cccc(NS(=O)(=O)c3cccs3)c2O[C@H]1CN(C)Cc1ccc(C(=O)Nc2ccccc2N)cc1 | 16 | 17
C[C@H](NC(=O)[C@H]1[C@H](CO)[C@H]2Cn3c(ccc(C4=CCCC4)c3=O)[C@@H]1N2C(=O)C1CC1)c1ccccc1 | -5 | 3
CO[C@@H]1CN(C)C(=O)c2cc(NC(C)=O)ccc2OC[C@@H](C)N(C(=O)CN(C)C)C[C@H]1C | 8 | 6
COc1ccc2c3c([nH]c2c1)[C@H](CO)N(Cc1ccccn1)CC31CCN(Cc2cccc(F)c2)CC1 | · | ?

(list continues)
SMILES | Vaccinia stage Venus | Vaccinia stage
CCCNC(=O)N[C@H]1CC[C@H](CCn2cc(C3CC3)nn2)O[C@H]1CO | 4 | 7
C[C@@H]1CN([C@H](C)CO)C(=O)c2cc(NC(=O)Nc3ccc(C(F)(F)F)cc3)ccc2O[C@H]1CN(C)Cc1ccc2c(c1)OCO2 | -27 | -34
CN(C)CC(=O)Nc1ccc2c(c1)[C@@H]1C[C@H](CC(=O)NCc3cccc(F)c3)O[C@H](CO)[C@@H]1O2 | -2 | 6
Cc1ccc(S(=O)(=O)N(C)C[C@H]2Oc3ccc(NC(=O)NC4CCCCC4)cc3CC(=O)N([C@H](C)CO)C[C@H]2C)cc1 | · | ?
C[C@H]1CN([C@@H](C)CO)C(=O)Cc2cc(NC(=O)Nc3cccc4ccccc34)ccc2O[C@H]1CN(C)CC1CCCCC1 | 1 | -6
NCC[C@H]1CC[C@H](NC(=O)C2CCCCC2)[C@H](CO)O1 | 1 | -1
COC(=O)[C@@H]1[C@@H](CO)[C@@H]2Cn3c(cccc3=O)[C@@H]2N1CC1CC1 | 20 | 20
O=C(C[C@@H]1CC[C@H]2[C@@H](COC[C@H](O)CN2C(=O)c2cnccn2)O1)NCc1ccc(F)cc1 | 8 | 2
Cc1ccc(S(=O)(=O)N(C)C[C@H]2Oc3c(NC(=O)c4cc(C)nn4C)cccc3C(=O)N([C@H](C)CO)C[C@H]2C)cc1 | 4 | 10
C[C@H](CO)N1C[C@H](C)[C@H](CN(C)Cc2ccncc2)Oc2ncc(-c3cccc(F)c3)cc2C1=O | 11&4 | 12&6
CCCC(=O)Nc1ccc2c(c1)OC[C@H](C)N(CC1CCOCC1)C[C@@H](C)[C@@H](OC)CN(C)C2=O | 11 | 13
COCC(=O)Nc1ccc2c(c1)C(=O)N(C)C[C@H](OC)[C@@H](C)CN(Cc1ccncc1)[C@@H](C)CO2 | 25 | 16
C[C@H](CO)N1C[C@H](C)[C@H](CN(C)C(=O)CN(C)C)Oc2ncc(-c3ccccc3F)cc2C1=O | 7 | 17
[N-]=[N+]=Nc1ccccc1C[C@@]1(C(=O)NCCN2CCOCC2)N=C(c2ccc(OCCCO)cc2)O[C@@H]1c1ccccc1N=[N+]=[N-] | -22 | -26
C[C@@H]1CCCCO[C@H](CN(C)Cc2ccccc2)[C@@H](C)CN([C@H](C)CO)C(=O)c2cc(NC(=O)NC3CCCCC3)ccc2O1 | -8 | -5
CO[C@H]1CN(C)C(=O)c2cc(NC(C)=O)ccc2OC[C@H](C)N(Cc2ccccn2)C[C@H]1C | -4 | -5
CCCN(C)C[C@H]1Oc2cc(/C=C/c3ccccc3)ccc2S(=O)(=O)N([C@@H](C)CO)C[C@H]1C | · | ?
C[C@@H]1CN([C@H](C)CO)C(=O)c2cccc(NC(=O)Nc3ccc(F)cc3)c2O[C@H]1CN(C)Cc1ccc(Cl)c(Cl)c1 | 13 | 10
C[C@@H]1CN([C@H](C)CO)C(=O)c2cccc(NC(=O)Nc3ccccc3)c2O[C@@H]1CN(C)S(=O)(=O)c1cn(C)cn1 | 0 | 4
C[C@@H]1CN([C@@H](C)CO)S(=O)(=O)c2ccc(C#Cc3ccccn3)cc2O[C@@H]1CN(C)Cc1cccc(F)c1 | · | ?
Cc1ccc(S(=O)(=O)N[C@@H]2CC[C@@H](CC(=O)NCc3ccccc3F)O[C@@H]2CO)cc1 | -3 | -3
N#C[C@@H]1[C@H](c2ccccc2/C=C/c2ccccc2)[C@H](CO)N1S(=O)(=O)c1ccc(F)cc1 | -27 | -34
C[C@H](CO)N1C[C@H](C)[C@H](CN(C)C(=O)Nc2ccccc2)Oc2c(NC(=O)c3ccc(-c4nccs4)cc3)cccc2C1=O | 6 | 10
CCNC(=O)C[C@@H]1CC[C@@H]2[C@H](COC[C@H](O)CN2Cc2ccccc2F)O1 | -1 | 8
O=C1CN(S(=O)(=O)Cc2ccccc2)C[C@H]2[C@H](c3ccc(C#Cc4ccc(F)cc4)cc3)[C@@H](CO)N12 | · | ?

Not a retest: entries from further up.
SMILES | Vaccinia stage Venus | Vaccinia stage
C[C@@H]1CN([C@H](C)CO)C(=O)c2cccc(NC(=O)Nc3ccccc3)c2O[C@@H]1CN(C)S(=O)(=O)c1cn(C)cn1 | 0 | 4
C[C@@H]1CN([C@@H](C)CO)S(=O)(=O)c2ccc(C#Cc3ccccn3)cc2O[C@@H]1CN(C)Cc1cccc(F)c1 | · | ?
Cc1ccc(S(=O)(=O)N[C@@H]2CC[C@@H](CC(=O)NCc3ccccc3F)O[C@@H]2CO)cc1 | -3 | -3
N#C[C@@H]1[C@H](c2ccccc2/C=C/c2ccccc2)[C@H](CO)N1S(=O)(=O)c1ccc(F)cc1 | -27 | -34
C[C@H](CO)N1C[C@H](C)[C@H](CN(C)C(=O)Nc2ccccc2)Oc2c(NC(=O)c3ccc(-c4nccs4)cc3)cccc2C1=O | 6 | 10
CCNC(=O)C[C@@H]1CC[C@@H]2[C@H](COC[C@H](O)CN2Cc2ccccc2F)O1 | -1 | 8
O=C1CN(S(=O)(=O)Cc2ccccc2)C[C@H]2[C@H](c3ccc(C#Cc4ccc(F)cc4)cc3)[C@@H](CO)N12 | · | ?

Later entries:
SMILES | Vaccinia stage Venus | Vaccinia stage
CN(C)C(=O)c1ccc(-c2ccc(C3[C@H]4CNC[C@@H]3N4C(=O)Nc3cccc(Cl)c3)cc2)cc1 (stereo partly drawn) | 6 | 9
CCCNC(=O)C[C@@H]1CC[C@@H]2[C@@H](COc3ccc(NC(=O)Nc4cccc(C)c4)cc3C(=O)N2C)O1 | 2 | 5
C[C@@H]1CCCCO[C@H](CN(C)Cc2ccc3c(c2)OCO3)[C@@H](C)CN([C@H](C)CO)C(=O)c2cc(NS(C)(=O)=O)ccc2O1 | 4 | 1
O=C(C[C@@H]1C[C@@H]2c3cc(NC(=O)c4cccnc4)ccc3O[C@@H]2[C@@H](CO)O1)NCc1cc(F)ccc1F | 8 | 6

These rows are one share of the data (hit frequency here may not be typical).
